# Compound activity from PubChem.
# CSC inhib – cancer stem cell inhibition | 300,000 compounds, 1.1% hits | AID 2717 | inhibition, % at 7.5 µM | cancer stem cell-like cells viability, luminescence;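 active = mean at 75% or more and at least half the replicates too; inconclusive = mean and replicates disagree; tested in HMLE shEcad cells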;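 also: 0% = median of negative and 100% = median of positive control wells; the first replicate is given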
# Env fusion inh – inhibitors of HIV Env-mediated cell fusion. HeLa-JRFL Env/CEM21 cell fusion, luciferase. inhibition, % at 12.3 µM. 360,000 compounds, 1.1% hits. AID 651610;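 active = mean replicate inhibition score of at least 50 and every replicate individually at or above 50; inconclusive = only one of the two criteria met; inactive = mean below 50 and not all replicates reaching 50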;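 also: 0% = plate neutral controls and 100% = maraviroc near 300 nM; one replicate is shown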
# MT1-MMP act inh – blocks activation of human MT1-MMP | AID 651647 | 360,000 compounds, 0.061% hits | HT1080 RFP-PRO-GFP cells, GFP/RFP ratio fluorescence, overnight; percent of plate control window, DMSO zero | GFP/RFP ratio change, % at 20 µM;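 active = GFP/RFP ratio change of at least 30% with cell ATP level not reduced by more than half and red fluorescence within 50% of control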; also: strong numbers were not always called active
#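 Material: RFP-PRO-GFP reporter HT1080 cells. Dosing: single-point 20 µM compound, 1% DMSO. Controls: DMSO and RFP-L50D-GFP cell wells. Timing: cells overnight before dosing, compound overnight, 37 °C, 5% CO2. Measure: GFP/RFP fluorescence ratio.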
# eIF4H FP inh – inhibitors of RNA binding by human eIF4H. Q15056. eIF4H fluorescence polarization binding assay. inhibition, % at 35 µM. 290,000 compounds, 0.94% hits. AID 2012;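 active = 50% or more with normal probe brightness, or confirmed in later tests; inconclusive = above 50% with abnormal brightness, or retests that disagree; inactive = below 50% or failed in later tests; about a fifth of its hits are not listed in these tables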;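 also: calls also rest on retests at 20 µM and on dose response follow-up; 0% = protein and probe with vehicle and 100% = probe without protein; strong numbers were not always called active; many hits fall short of the cut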
# PABP FP inh – PABP-poly(A) binding inhibition | P11940 | PABP-poly(A) RNA binding, fluorescence polarization | inhibition, % at 35 µM | 290,000 compounds, 1% hits | AID 2014;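 active = 50% or more with normal probe brightness, or confirmed in later tests; inconclusive = above 50% with abnormal brightness, or retests that disagree; inactive = below 50% or failed in later tests; about a fifth of its hits are not listed in these tables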;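 also: calls also rest on retests at 20 µM and on dose response follow-up; controls were probe without protein and protein plus probe with vehicle; some compounds called inactive have numbers as strong as hits; many hits fall short of the cut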
# Target sequence (P11940 whole entry, looked up): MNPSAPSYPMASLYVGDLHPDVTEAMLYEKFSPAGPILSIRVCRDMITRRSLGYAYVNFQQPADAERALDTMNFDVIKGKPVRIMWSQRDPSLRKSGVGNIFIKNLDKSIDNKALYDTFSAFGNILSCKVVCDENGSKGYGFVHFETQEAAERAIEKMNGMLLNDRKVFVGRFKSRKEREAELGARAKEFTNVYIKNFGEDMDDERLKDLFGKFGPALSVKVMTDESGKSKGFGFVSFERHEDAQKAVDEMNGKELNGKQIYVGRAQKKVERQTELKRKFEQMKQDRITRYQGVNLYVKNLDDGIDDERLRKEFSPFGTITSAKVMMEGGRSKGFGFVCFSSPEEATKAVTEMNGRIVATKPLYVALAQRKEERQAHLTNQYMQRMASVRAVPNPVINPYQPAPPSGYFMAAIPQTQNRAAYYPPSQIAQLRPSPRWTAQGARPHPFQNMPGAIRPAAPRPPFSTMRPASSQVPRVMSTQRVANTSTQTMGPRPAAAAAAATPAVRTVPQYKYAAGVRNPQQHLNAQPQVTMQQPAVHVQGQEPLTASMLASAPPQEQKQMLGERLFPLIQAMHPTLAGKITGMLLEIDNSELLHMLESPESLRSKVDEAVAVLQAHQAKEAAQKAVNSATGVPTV
# UUG fidelity – alters start codon recognition fidelity in yeast | S. cerevisiae UUG-firefly luciferase reporter, luminescence/redox ratio | activity score, % at 18.7 µM | 350,000 compounds, 0.13% hits;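 active = replicate mean at a twofold rise or more, about +100% in these data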;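 also: firefly luciferase made from a UUG start codon reports start codon fidelity; reporter light over untreated wells divided by growth signal over untreated wells; some hits fall short of that in this replicate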
# Rce1 inhib – blocks yeast Ras-converting enzyme. Q03530. yeast membranes, quenched prenylated peptide cleavage fluorescence. calls only. 290,000 compounds, 0.27% hits. AID 2563;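 active = fall in fluorescence gain of 50% or more versus controls, with final raw signal at or below 3038400; inconclusive = same 50% fall but final raw signal above 3038400; inactive = fall in fluorescence gain under 50%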;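 also: plate controls were neutral control wells for no effect and wells lacking membranes for full effect; tested at 10 µM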
# Target sequence (Q03530 whole entry, looked up): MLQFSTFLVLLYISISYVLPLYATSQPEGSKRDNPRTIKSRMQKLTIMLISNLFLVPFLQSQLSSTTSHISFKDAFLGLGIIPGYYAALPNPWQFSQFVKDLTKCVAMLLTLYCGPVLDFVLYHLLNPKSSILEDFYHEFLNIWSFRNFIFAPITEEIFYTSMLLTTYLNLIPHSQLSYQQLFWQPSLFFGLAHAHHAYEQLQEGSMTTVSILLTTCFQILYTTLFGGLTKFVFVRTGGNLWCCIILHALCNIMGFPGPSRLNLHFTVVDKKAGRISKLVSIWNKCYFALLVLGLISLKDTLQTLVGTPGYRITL
# eIF4H FP inh retest – recorded beside eIF4H FP inh, whose call it bears; inhibition, %; compound at 20 µM; confirmation average;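 mean of two retest wells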
# PABP FP inh retest – also measured in PABP FP inh; calls as there; inhibition, %; compound at 20 µM; confirmation repeats;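 mean of two retest wells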
# MT1-MMP act inh RFP – also measured in MT1-MMP act inh; calls as there; RFP signal change, %; measured here: RFP expression control read;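 0 = vehicle wells; hits needed this value within 50% of zero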
# Numbers without * were called inactive; i = inactive; ? = inconclusive; . = not tested or not shown; [ ] = remark or other dose.
SMILES,CSC inhib,Env fusion inh,MT1-MMP act inh,MT1-MMP act inh RFP,eIF4H FP inh,PABP FP inh,UUG fidelity,Rce1 inhib,others
NC(=O)C1Cc2ccccc2CN1S(=O)(=O)c1ccc(Cl)s1 (stereo unspecified),-5,-8,2,2,-5,-11,-24,i,
COC(=O)c1ccccc1NC(=O)C1CCCCC1C(=O)O (stereo unspecified),-11,-9,3,4,-5,-2,-4,i,
N#CC(C(=O)NCc1ccco1)c1nc2ccccc2nc1N1CCOCC1 (stereo unspecified),1,.,-6,-1,11,16,-1,i,
CC1(C)SC2c3ccccc3C(=O)N2[C@@H]1C(=O)NCc1ccco1 (stereo partly specified),-7,.,2,6,-4,-5,-18,i,
CCCc1cc(=O)oc2cc(C)cc(OC(C)C(=O)NCCCn3ccnc3)c12 (stereo unspecified),-3,-9,-1,5,-23,-2,-6,i,
Cc1nc2nc(SCC(=O)c3cccc([N+](=O)[O-])c3)[nH]c2cc1Br,7,.,1,-1,5,12,-6,i,
CCC1CCCCN1CCCNC(=O)COc1cc(=O)n(C)c2ccccc12 (stereo unspecified),-15,-102,6,4,-17,-4,-10,i,
Cc1ccc(Oc2ccc(OCC(=O)NC3CCS(=O)(=O)C3)cc2)cc1 (stereo unspecified),9,7,-3,-22,2,5,.,i,
CCC(=O)OCCn1c(=O)c2cc3c(=O)n(CCOC(=O)CC)c(=O)c3cc2c1=O,-6,.,-2,1,1,0,-6,.,
CCCC(c1nnnn1CS(=O)(=O)c1ccc(C)cc1)N1CCN(CC)CC1 (stereo unspecified),2,4,1,5,-10,6,.,i,
CC(CO)NS(=O)(=O)c1cc(Cl)ccc1F (stereo unspecified),.,-15,0,3,.,.,-15,.,
COc1cccc(/C=N/NC(=O)c2ccc(=O)[nH]n2)c1O,7,9,7,4,5,-14,-8,i,
Cc1onc(-c2ccc(Cl)cc2)c1-c1ccnn1S(=O)(=O)c1ccc(Cl)cc1,30,21,-1,-16,-6,2,174*,i,
c1ccc(-c2onc3c2CCCC3)cc1,11,.,1,5,2,-6,-23,i,
COc1ccc(N2CCN(C(=O)COC(=O)Cc3c(F)cccc3Cl)CC2)cc1,-8,.,5,1,.,.,-4,i,
CCNC(=O)C[C@@H]1C=C[C@@H](NS(=O)(=O)c2ccc(F)cc2)[C@@H](CO)O1,.,-2[16.7 µM],-2,3,.,.,-4,.,
S=c1[nH]nc(-c2ccccn2)n1/N=C/c1ccco1,4,-7,1,3,0,5,-21,.,
CN(C)CCN(C)C1CN(Cc2ccc(F)cc2)S(=O)(=O)C1 (stereo unspecified),.,-13,2,2,.,.,-4,.,
CCOP(=O)(OCC)C(Nc1cccc(C)c1)c1ccc(F)cc1 (stereo unspecified),-15,-14,-2,1,1,-9,.,i,
N/C(=N\OC(=O)CCc1ccccc1)c1ccccc1Cl,-4,-8,-1,-6,8,-8,.,.,
O=C(CN1CCc2cc3c(cc2C1)OCCCO3)Nc1cccc([N+](=O)[O-])c1,11,9,1,2,-16,-6,.,i,
CCOC(=O)CSc1nc2ccccc2n1C(=O)OCC,-3,.,-4,9,30,16,-15,i,
O=C(CCC(=O)N1CCSc2ccccc21)NCc1cccc(Cl)c1,18,14,7,4,8,-2,-9,i,
CSc1nc2ccccc2n1CC(=O)Nc1ccccc1,-1,.,5,5,-10,-3,-6,i,
CC[C@]12C(=O)N(C)C[C@H]([C@@H]3C(=O)N(Cc4ccccc4)C(=O)[C@@H]31)N2C(=O)c1ccc(C(C)(C)C)cc1,.,58*,0,4,.,.,-9,.,
CC1(C(=O)NS(=O)(=O)c2ccc(C#N)cc2)CCN1C(=O)Cc1cccc2ccccc12 (stereo unspecified),.,-18,-1,2,.,.,4,.,
Cc1ccc(-c2noc(CNCCCN(C)C)n2)cc1,-10,.,0,6,-3,13,-13,i,
O=C1c2ccncc2C(=O)N1CO,-9,.,-1,5,0,8,.,i,
Cc1nn(CC(=O)NCCCN2CCC(N3CCCCC3)CC2)c(=O)c2cc(-c3ccccc3)nn12,-6,1,13,10,5,23,-7,i,
Cc1cc(NC(CC(C)C)C(=O)O)nc(Cc2ccccc2)n1 (stereo unspecified),-10,.,6,2,4,12,8,i,

# Grouped by structure, the compounds so far with a cyano group (2)
SMILES,CSC inhib,Env fusion inh,MT1-MMP act inh,MT1-MMP act inh RFP,eIF4H FP inh,PABP FP inh,UUG fidelity,Rce1 inhib,others
N#CC(C(=O)NCc1ccco1)c1nc2ccccc2nc1N1CCOCC1 (stereo unspecified),1,.,-6,-1,11,16,-1,i,
CC1(C(=O)NS(=O)(=O)c2ccc(C#N)cc2)CCN1C(=O)Cc1cccc2ccccc12 (stereo unspecified),.,-18,-1,2,.,.,4,.,

# The list goes on:
SMILES,CSC inhib,Env fusion inh,MT1-MMP act inh,MT1-MMP act inh RFP,eIF4H FP inh,PABP FP inh,UUG fidelity,Rce1 inhib,others
COC(=O)N/N=C/c1ccc(OC(=O)/C=C/c2ccco2)cc1,-11,-78,-3,1,?,25*,3,i,PABP FP inh retest=109*
Cc1ccc(C)c(N2CCN(C(c3ccc(N(C)C)cc3)c3nnnn3C(C)(C)C)CC2)c1 (stereo unspecified),-4,.,-7,-10,0,1,-14,i,
O=C(O)CCCC(=O)Nc1cccc(C(F)(F)F)c1,4,-95,3,4,-4,-8,-14,i,
CSc1ccccc1NC(=O)CN(C)C(=O)c1ccc(NC(=O)c2cccs2)cc1,.,0,2,0,.,.,-2,.,
O=P1(O)C=C(c2ccccc2)NC(c2ccccc2)=C1,-9,.,0,1,-13,-5,11,i,
CN(c1ccc(Cl)cc1)c1cc2c(c3c1ccn3C)C1CCC2O1 (stereo unspecified),.,14,-3,-6,.,.,-17,.,
Cn1c(=O)c(=O)n(C)c2cc(N3CCOCC3)c(NS(=O)(=O)c3ccc(F)c(Cl)c3)cc21,-27,4,2,-1,-10,3,.,i,
CCc1ccc(N=CC2=C(O)CC(c3ccco3)CC2=O)cc1 (stereo unspecified),15,.,-2,3,9,-2,-7,i,
Cc1noc(/C=C/N(C)C)c1S(=O)(=O)N1CCCC(C(=O)NCCC2=CCCCC2)C1 (stereo unspecified),8,-19,5,2,-9,-4,-15,i,
COc1ccc(-c2n[nH]c(=S)n2N)c(OC)c1,7,9,0,5,-1,-15,-9,i,

# The closing two entries of the part before come first, to join the parts:
SMILES,CSC inhib,Env fusion inh,MT1-MMP act inh,MT1-MMP act inh RFP,eIF4H FP inh,PABP FP inh,UUG fidelity,Rce1 inhib,others
Cc1noc(/C=C/N(C)C)c1S(=O)(=O)N1CCCC(C(=O)NCCC2=CCCCC2)C1 (stereo unspecified),8,-19,5,2,-9,-4,-15,i,
COc1ccc(-c2n[nH]c(=S)n2N)c(OC)c1,7,9,0,5,-1,-15,-9,i,
CC[C@@]12C(=O)N(c3cccc(F)c3)C(=O)N1[C@H](c1cccc(C)c1)[C@@H]1C(=O)N(Cc3ccccc3)C(=O)[C@@H]12,3,21,1,-3,-8,1,-3,i,
Oc1ccc(-c2cnc(-c3ccc(O)cc3)nc2)cc1,98*,-134,-2,1,-2,-2,-74,i,
Cc1cccc(-n2c(C)nc3ccsc3c2=O)c1,-7,8,-1,0,.,.,.,i,
COc1ccc(CC(=O)NCc2n[nH]c(=S)n2-c2ccccc2OC)cc1,-3,6,1,0,1,10,.,.,
CCOC(=O)C1=CC[C@H]2c3c(c4ccccc4n3C)C(=O)C1N2C,-5,3,-1,-3,.,.,-12,.,
O=C(CCc1ccccc1)Nc1ccc2c(c1)OCO2,15,-40,-2,-2,75,-2,-15,i,eIF4H FP inh retest=16;PABP FP inh retest=13
N#C/C(=C\c1cccnc1)c1ccccc1[N+](=O)[O-],7,-3,-6,-6,-10,6,-24,i,
CC1NC(=O)c2cc3ccccc3cc2-n2c1nc1ccc(F)cc1c2=O (stereo unspecified),.,9,3,5,.,.,-6,.,
COc1ccc(Cc2cc(NCc3ccccc3)c3ncn(C(C)C)c3c2)cc1,.,24,-1,-7,.,.,-18,.,
CCc1ccc(NC(=O)CCn2c(=O)oc3ccccc32)cc1,-12,-20,-2,0,-3,-4,-1,i,
CCc1ccc2oc(C(=O)Nc3cccnc3)c(C)c2c1,44,.,-1,-9,-10,3,-22,i,
O=C(NCC(F)(F)F)c1ccc2sc([C@H]3C[C@H](O)[C@@H](CO)O3)nc2c1,.,13,-1,5,.,.,-25,.,
Oc1ccccc1C1=Nc2nc3ccccc3n2C(c2ccccc2)C1 (stereo unspecified),18,.,-15,-14,-6,13,-34,i,
CCOC(=O)c1c(NC(=O)CN2C(=O)NC3(CCC(C)CC3)C2=O)sc(C(=O)N(C)C)c1C (stereo unspecified),-7,-7,-1,1,.,.,1,i,
Cc1ccc(NC(=O)COc2coc(CN3CCc4ccccc43)cc2=O)cc1Cl,11,24,0,-1,.,.,-7,i,
CN(C)CCNC(=O)c1cccc(-c2cnc3c(NC=O)cc(-c4cc(F)c(F)c(F)c4)cn23)c1,.,-1,3,3,.,.,-3,.,
Cn1c(SCc2nc(-c3ccc(Br)cc3)no2)nnc1-c1ccco1,-2,-18,-3,-3,0,4,-23,i,
CSc1ccc(C(=O)C2CCCN(C(=O)Cc3nonc3C)C2)cc1 (stereo unspecified),-4,10,2,-1,-8,-3,-3,i,
CCOc1cc(/C=N\NC(=O)c2ccc(NC(=O)C(C)(C)C)cc2)ccc1OC(=O)c1cccc(C)c1,-2,?,7,-9,0,6,-3,i,
Cc1ccc(C(=O)N2CCC(C(=O)NCc3ccco3)CC2)cc1,7,-33,3,4,-4,1,-2,i,
O=C(O)c1cccc(-n2cccc2/C=C/[N+](=O)[O-])c1,-6,6,-10,0,94*,76*,.,i,
CCn1nnnc1SCC(=O)Nc1ccc(OCc2ccccc2)cc1,25,-112,-6,0,2,-16,-8,.,
COc1ccc2[nH]c(=O)c(CN(C(C)=O)c3ccc(C)cc3C)cc2c1,-13,4,1,1,-12,-7,-9,i,
CCN(CC)C(=O)Cc1ccccc1,-13,.,5,4,-7,8,-22,i,
CC(C)(C)C(=O)Nc1cccc(-c2ncon2)c1,-6,-5,1,-2,-5,0,-8,i,
CCCCC(=O)Nc1ccc(N2CCN(C(=O)c3ccco3)CC2)cc1,-2,-4,-1,4,-15,7,-1,i,
Cc1ccc(-n2nc(C)c(C(C)(O)C(F)(F)F)c2N)cc1 (stereo unspecified),5,-29,-1,3,-13,-1,.,i,
CCC(=O)Nc1cccc(NC(=O)CSc2nnc(C(C)C)n2CC)c1,-5,.,-1,0,-9,-1,-7,.,
O=C(CSCc1c(F)cccc1Cl)NCC1CCCO1 (stereo unspecified),.,-53,-1,3,-5,5,-17,i,
CC1(C)Cc2c(sc3nnn(Cc4ccccc4)c(=O)c23)CO1,10,.,3,-1,9,-12,.,i,
Cc1cccc(NNC(N)=S)c1C,-13,0,2,-1,-8,1,-33,i,
NC(Cc1ccc(Cl)cc1)c1csc(Nc2ccc(-c3ccccc3)nn2)n1 (stereo unspecified),.,-31,-2,2,.,.,-16,.,
COCc1cc(C)nc(SCc2ccc(Br)cc2)c1C#N,33,-10,2,-4,.,.,4,i,
O=C(O)COc1ccc(Cl)cc1CO,-9,.,.,.,4,19,.,i,
CN(C)C1=NC[C@H](Cc2ccccc2)N1CCCC1CCCCC1,27,9,4,1,.,.,-16,.,
Cc1cc(NC(=O)CCC2CCCC2)no1,-8,-46,1,4,-10,4,-23,i,
Cc1ccc(OCC(O)CN2CCN(CCO)CC2)c(C)c1 (stereo unspecified),0,-2,1,1,-4,5,-7,i,

# An excerpt (hit frequency here may not be typical).
